Source: PubChem BioAssay (several laboratories)
Rce1 inhib: blocks yeast Ras-converting enzyme. Q03530. calls only. actives 0.27% (n = 290,000). yeast membranes, quenched prenylated peptide cleavage fluorescence;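 active means fall in fluorescence gain of 50% or more versus controls, with final raw signal at or below 3038400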;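 further: plate controls were neutral control wells for no effect and wells lacking membranes for full effect; tested at 10 µM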
Target sequence (Q03530 whole entry, looked up): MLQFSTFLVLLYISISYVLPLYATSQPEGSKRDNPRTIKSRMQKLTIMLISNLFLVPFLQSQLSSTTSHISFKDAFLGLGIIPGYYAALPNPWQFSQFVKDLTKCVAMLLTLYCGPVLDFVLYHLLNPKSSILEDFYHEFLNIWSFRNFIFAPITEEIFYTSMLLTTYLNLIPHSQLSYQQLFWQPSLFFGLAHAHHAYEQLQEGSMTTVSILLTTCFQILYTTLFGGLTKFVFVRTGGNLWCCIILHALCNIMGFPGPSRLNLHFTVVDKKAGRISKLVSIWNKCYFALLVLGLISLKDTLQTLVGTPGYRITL
Env fusion inh: HIV envelope-mediated fusion inhibition. HeLa-JRFL Env/CEM21 cell fusion, luciferase. inhibition, % at 12.3 µM. actives 1.1% (n = 360,000). AID 651610;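 active means mean replicate inhibition score of at least 50 and every replicate individually at or above 50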;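 further: 0% = plate neutral controls and 100% = maraviroc near 300 nM; one replicate is shown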
MT1-MMP act inh: blocks activation of human MT1-MMP; P50281; HT1080 RFP-PRO-GFP cells, GFP/RFP ratio fluorescence, overnight; percent of plate control window, DMSO zero; GFP/RFP ratio change, % at 20 µM; actives 0.061% (n = 360,000);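 active means GFP/RFP ratio change of at least 30% with cell ATP level not reduced by more than half and red fluorescence within 50% of control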; further: strong numbers were not always called active
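Assay system: HT1080 RFP-PRO-GFP cells | Dosing: 20 µM single dose, 1% DMSO | Incubation: Cells overnight before dosing, compound overnight, 37 °C, 5% CO2 | Evaluation: GFP/RFP fluorescence ratio | Control set: DMSO-only wells and HT1080 RFP-L50D-GFP cell wells as references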
MT1-MMP act inh RFP: second read-out of MT1-MMP act inh, no call of its own (marks repeat the call); RFP signal change, %; measured here: RFP expression control read;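 0 = vehicle wells; hits needed this value within 50% of zero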
An asterisk follows results filed as active; i = inactive; nt = no result given.

item	SMILES	Rce1 inhib	Env fusion inh	MT1-MMP act inh	MT1-MMP act inh RFP
1	CCCCC[C@@H](C)N1C[C@@H](COCc2ccccc2)Oc2cc(N3CCC[C@H]3C(N)=O)ccc2S1(=O)=O	nt	nt	-0.4	-5.3
2	Clc1ccc(CNc2ncnc3[nH]ncc23)cc1Cl	nt	nt	9.4	-12.1
3	O=C(C1CCCCC1)N1C[C@@H](O)[C@H](n2cc(-c3ccc(F)cc3)nn2)C[C@@H]1c1ccccc1	nt	nt	3.5	-13.5
4	CCOC(=O)c1ccc(N(CCC2CO2)S(=O)(=O)c2ccc(C)cc2)cc1 (stereo unspecified)	nt	nt	-5.6	1.3
5	CC1(CCc2ccccc2)NC(=O)N(CC(=O)Nc2ccccc2C#N)C1=O (stereo unspecified)	nt	nt	5.9	6.0
6	CCC1(OC(=O)CN(C)C)C(=O)OCc2c1cc1n(c2=O)Cc2cc3c(N)cccc3nc2-1 (stereo unspecified)	nt	nt	1.6	-2.2
7	ClC1=CN(C2=NCCC2)CC1	nt	nt	1.0	5.7
8	O=C(Nc1ccccc1)OCCNC1CCCCC1	nt	nt	11.9	-1.1
9	CCCCC[C@@H](C)N1C[C@@H](COCc2ccccc2)Oc2cc(N3CCC[C@@H]3COC)ccc2S1(=O)=O	nt	nt	-7.4	-10.8
10	Nc1nc2ccc(Cl)cc2cc1C(=O)NCc1ccc(Oc2ccccc2)cc1	nt	nt	5.0	-23.8
11	O=C(Nc1cc2c(cc1Cl)-c1ccc([N+](=O)[O-])cc1C2=NO)C(F)(F)F	nt	nt	-58.8	-3.6
12	OCCOC1CCCc2oc(-c3ccccc3)c(C#CC3(O)CCCCC3)c21 (stereo unspecified)	nt	nt	4.2	-1.5
13	CC1(C)CN(CCc2ccccc2)C(=O)[C@H]1CC(=O)Nc1ccccc1	nt	nt	3.8	3.8
14	Cc1cc(C)c2cc(C#N)c(NCCCNC(=O)c3ccncc3)nc2c1	nt	nt	2.4	1.4
15	O=C(CCCCl)N1CCc2[nH]c3ccccc3c2C1	nt	nt	2.3	7.9
16	CCCCC(CCc1ccccn1)C(=O)c1ccccc1 (stereo unspecified)	nt	nt	-3.2	-0.7
17	CC(C)OCCc1cccc[n+]1[O-]	nt	nt	3.6	4.1
18	COc1cc(CC(=O)OCC(=O)NC2CCCC2)cc(OC)c1OC	nt	nt	1.2	-0.7
19	CC(C)(C)OC(=O)N1CCc2onc(-c3ccc(N)cc3)c2C1=O	nt	nt	2.8	4.6
20	Cc1ccc(C)c(S(=O)(=O)N2CCN(Cc3cc4c(cc3O)OCO4)CC2)c1	nt	nt	-7.5	-3.3
21	CCOc1cc(C=NNC(=O)CCCC(=O)NN=Cc2ccc(O)c(OCC)c2)ccc1O	nt	nt	-0.1	5.2
22	Cc1ccc(NC(=O)COC(=O)C2CCC2)cc1S(=O)(=O)N1CCOCC1	nt	nt	1.4	3.2
23	Nc1ncnc2c1ncn2C1C=C(CO)C(O)C1O (stereo unspecified)	nt	nt	-1.7	-1.6
24	c1ccc2c(c1)OC1OC2Oc2ccccc21	nt	nt	-2.9	-1.9
25	Cc1ccc(C2C=CC(C#N)=CN2Cc2ccccc2)cc1 (stereo unspecified)	nt	nt	-3.1	17.2

One compound at a time, as listed above. Screens in order: Rce1 inhib	Env fusion inh	MT1-MMP act inh	MT1-MMP act inh RFP
CCOC(=O)c1ccc(N(CCC2CO2)S(=O)(=O)c2ccc(C)cc2)cc1 (stereo unspecified) is entered as nt	nt	-5.6	1.3
CCCCC[C@@H](C)N1C[C@@H](COCc2ccccc2)Oc2cc(N3CCC[C@@H]3COC)ccc2S1(=O)=O is entered as nt	nt	-7.4	-10.8
ClC1=CN(C2=NCCC2)CC1 is entered as nt	nt	1.0	5.7
CCC1(OC(=O)CN(C)C)C(=O)OCc2c1cc1n(c2=O)Cc2cc3c(N)cccc3nc2-1 (stereo unspecified) is entered as nt	nt	1.6	-2.2
CCOc1cc(C=NNC(=O)CCCC(=O)NN=Cc2ccc(O)c(OCC)c2)ccc1O is entered as nt	nt	-0.1	5.2

The results go on:
item	SMILES	Rce1 inhib	Env fusion inh	MT1-MMP act inh	MT1-MMP act inh RFP
26	C[C@H](c1ccccc1)N1C[C@@H](COCc2ccccc2)Oc2cc(N3CC[C@H](O)C3)ccc2S1(=O)=O	nt	nt	-0.7	-1.0
27	NCCC1CN(C(=O)OCc2ccccc2)c2ccccc21 (stereo unspecified)	nt	nt	-1.2	-1.3
28	Cc1nn2c(CN(C(=O)c3ccco3)c3ccccc3)nnc2c2ccccc12	nt	nt	1.0	0.9
29	CN1CCN(C2CN(Cc3cn(Cc4ccc(C(F)(F)F)cc4)nn3)S(=O)(=O)C2)CC1 (stereo unspecified)	nt	nt	4.5	5.3
30	Nc1nc2ccc(Cl)cc2cc1C(=O)NCCc1c[nH]c2ccccc12	nt	nt	5.3	-25.3
31	CC(NC(=O)Oc1cccc2ccccc12)c1ccccc1 (stereo unspecified)	nt	nt	-4.6	0.9
32	CSc1ncnc2ncn(C)c12	nt	nt	-2.8	-0.7
33	CCCCC[C@H](C)N1C[C@H](COCc2ccccc2)Oc2cc(N3CC[C@@H](N(C)C)C3)ccc2S1(=O)=O	nt	nt	-3.6	-6.5
34	CN1OC[C@@H]2CN(S(=O)(=O)c3cccc(C(F)(F)F)c3)[C@H](c3ccc(-c4cc5ccccc5o4)cc3)C[C@@H]21	nt	nt	-2.7	-2.1
35	Cc1cc(NC(=O)CSc2nc3cc(Cl)ccc3c(=O)n2C(C)C)no1	nt	nt	-3.6	-2.8
36	Cc1ccc2nc(Cl)cc(=O)n2c1	nt	nt	2.5	0.6
37	Nc1cccc2[nH]c(=O)c3ccccc3c12	nt	nt	-3.7	-0.8
38	O=S1(=O)N[C@H](Cc2ccccc2)COc2cc(N3CCC[C@@H]3CO)ccc21	nt	nt	2.2	0.6
39	CC(CNC1CCCCC1)OC(=O)c1ccc([N+](=O)[O-])cc1 (stereo unspecified)	nt	nt	2.1	0.7
40	O=C(CN1CCNCC1)N1CCOCC1	nt	nt	2.5	5.4
41	OC(Cc1ccncc1)c1ccccc1Cl (stereo unspecified)	nt	nt	2.1	2.0
42	O=S1(=O)N[C@H](Cc2ccccc2)COc2cc(N3CCC[C@H]3CO)ccc21	nt	nt	6.5	2.0
43	O=C(NN=Cc1cc(=O)[nH]c(=O)[nH]1)c1ccncc1	nt	nt	-2.8	0.3
44	CNC(=O)C[C@H]1C(=O)N(Cc2ccccc2)C[C@@H]1Cc1ccccc1	nt	nt	-4.2	-1.4
45	O=[N+]([O-])c1cccc(C=NNC(=S)NC23CC4CC(CC(C4)C2)C3)c1	nt	nt	-1.2	-7.1
46	CCCCC[C@H](C)N1C[C@H](COCc2ccccc2)Oc2cc(N3CC[C@H](O)C3)ccc2S1(=O)=O	nt	nt	-6.7	-10.3
47	C[C@H](c1ccccc1)N1C[C@H](COCc2ccccc2)Oc2cc(N3CC[C@H](O)C3)ccc2S1(=O)=O	nt	nt	-9.9	-14.5
48	Cc1ccc(S(=O)(=O)N2CCSCCSCCSCCSCC2)cc1	nt	nt	1.8	-10.5
49	NC(CSCc1ccccc1)C(=O)Nc1ccc([N+](=O)[O-])cc1 (stereo unspecified)	nt	nt	-0.2	2.5
50	CC1CCCCC1NC(=O)CN1c2cccc3cccc(c23)S1(=O)=O (stereo unspecified)	nt	nt	0.8	-8.1
51	O=S(=O)(c1ccc(F)cc1F)N1CCN(CCO)CC1	nt	nt	-5.1	-2.5
52	COc1ccc(NC(=O)N(O)C2(C#N)CCCCC2)cc1	nt	nt	5.4	5.3
53	COc1ccc(C(=O)COC(=O)CCN2C(=O)C3CC=CCC3C2=O)c(OC)c1 (stereo unspecified)	nt	nt	-1.7	1.1
54	O=C1NC(=S)SC1=Cc1ccccc1Cl	nt	nt	4.5	-2.4
55	COC[C@@H]1CCCN1c1ccc2c(c1)O[C@H](COCc1ccccc1)CN([C@@H](C)c1ccccc1)S2(=O)=O	nt	nt	3.1	-4.9
56	O=C(OCCO)c1c(C2=CCCCC2)oc2c1C(OCCO)CCC2 (stereo unspecified)	nt	nt	3.9	2.7
57	COC[C@H]1CCCN1c1ccc2c(c1)O[C@H](COCc1ccccc1)CN([C@@H](C)c1ccccc1)S2(=O)=O	nt	nt	2.1	-4.6
58	CCOc1ccc2c(ccc(/C=C/c3cc(C)c4cccnc4c3O)[n+]2C)c1	nt	nt	29.1	-14.9
59	CC(C)C1C(=O)N(Cc2cn(CCC3OCCO3)nn2)CCS(=O)(=O)N1Cc1ccc(-c2ccc(F)cc2)cc1 (stereo unspecified)	nt	nt	2.6	-2.5
60	CCCC/C=C1/CCC(CN(C)C)C1=O (stereo unspecified)	nt	nt	1.0	7.8
61	CCN(CC)CC(O)CNc1ccnc2c(Cl)ccc(Cl)c12 (stereo unspecified)	nt	nt	3.9	2.5
62	CCOc1ccc(NC(=O)COC(=O)C2CCC(=O)N2)c([N+](=O)[O-])c1 (stereo unspecified)	nt	nt	2.3	2.2
63	O=C1c2nccnc2C(=O)N1Cc1ccccc1	nt	nt	-2.4	6.2
64	C[C@H](c1ccccc1)N1C[C@H](COCc2ccccc2)Oc2cc(N3CCC[C@H]3CO)ccc2S1(=O)=O	nt	nt	-8.9	-11.8
65	Cc1ccc(NC(=O)COC(=O)CCC2CCCC2)c(Br)c1	nt	nt	-0.2	4.6
66	N#CCC(=O)Nc1ccc(C(=O)OCC(=O)NCc2ccc3c(c2)OCO3)cc1	nt	nt	-4.9	3.1
67	COc1ccc(CCNC2=CC(=O)CCC2)cc1OC	nt	nt	1.6	5.0
68	CCOC1CCCc2oc(-c3ccc(OC)cc3)c(C#CCCO)c21 (stereo unspecified)	nt	nt	4.0	3.6
69	CC12CCC(=O)C=C1C(O)CC1C2CCC2(C)C1CCC2(O)C(=O)CO (stereo unspecified)	nt	nt	1.6	6.4
70	COC[C@@H]1CCCN1c1ccc2c(c1)O[C@@H](COCc1ccccc1)CN([C@H](C)c1ccccc1)S2(=O)=O	nt	nt	-7.3	-8.1
71	O=C(C[C@H]1C(=O)N(Cc2ccccc2)C[C@@H]1c1ccc(Br)cc1)Nc1ccc(Br)cc1	nt	nt	-4.3	-5.0
72	C[C@@H](c1ccccc1)N1C[C@@H](COCc2ccccc2)Oc2cc(N3CCC[C@H]3CO)ccc2S1(=O)=O	nt	nt	-1.6	-8.8
73	O=C(c1cccc(S(=O)(=O)Nc2ccccc2Cl)c1)N1CCN(c2ccccc2O)CC1	nt	nt	3.1	4.9
74	Cc1ccc(CN2CC(C(=O)NNC(=O)c3ccc(F)cc3)CC2=O)cc1 (stereo unspecified)	nt	nt	1.1	0.8
75	O=C(NC(Cc1cn(Cc2ccccc2)cn1)C(=O)O)OCC1c2ccccc2-c2ccccc21 (stereo unspecified)	nt	nt	-0.7	5.1

Carrying on:
item	SMILES	Rce1 inhib	Env fusion inh	MT1-MMP act inh	MT1-MMP act inh RFP
76	O=C(C1=C[C@H](c2csc3ccccc23)C[C@H](OCc2ccc(CO)cc2)O1)N1CCCCCCC1	i	13.7	nt	nt
77	COc1ccc(CNS(=O)(=O)c2cc3c4c(c2)CCN4C(=O)CC3)cc1	i	nt	-2.4	-1.5
78	CC(C)Cc1cc(C(=O)O)c2ccccc2n1	i	nt	-1.2	7.0
79	Cc1cc(C)cc(OCC(=O)OC(C)C(=O)Nc2ccc(Cl)cn2)c1 (stereo unspecified)	i	nt	-1.0	-1.2
80	COc1ccc(S(=O)(=O)NC2CC(=O)N(c3ccc4c(c3)OCCO4)C2)cc1 (stereo unspecified)	i	nt	-0.5	0.0
81	CC1Cc2ccccc2N1C(=O)COC(=O)c1cc(Br)ccc1O (stereo unspecified)	i	nt	8.8	-5.4
82	O=C1CCc2cc(S(=O)(=O)NCc3ccc(F)cc3)cc3c2N1CC3	i	nt	-0.8	1.8
83	O=S(=O)(c1ccccc1)N1CCC2(CC1)OCCN2S(=O)(=O)c1cccs1	i	nt	1.9	-1.9
84	O=S(=O)(c1cccc(Br)c1)N1CCN(C(=S)NCC2CCCO2)CC1 (stereo unspecified)	i	nt	7.5	1.2
85	Cc1ccc(S(=O)(=O)N2CCN(C(=O)COC(=O)CCOc3ccc(C(C)(C)C)cc3)CC2)cc1	i	nt	5.9	-1.9
86	O=C(NCC1CCCN1S(=O)(=O)c1cccs1)c1cccc(F)c1 (stereo unspecified)	i	nt	-3.2	-0.3
87	Cc1ccc(C)c(S(=O)(=O)Nc2ccc(C(=O)NCCCN3CCOCC3)cc2)c1	i	nt	2.6	-0.2
88	O=C(CCNC(=O)c1ccc(Cl)cc1)NCCC1=CCCCC1	i	nt	-2.3	-4.9

In the list so far, these have a thiophene ring, fused or not.
item	SMILES	Rce1 inhib	Env fusion inh	MT1-MMP act inh	MT1-MMP act inh RFP
76	O=C(C1=C[C@H](c2csc3ccccc23)C[C@H](OCc2ccc(CO)cc2)O1)N1CCCCCCC1	i	13.7	nt	nt
83	O=S(=O)(c1ccccc1)N1CCC2(CC1)OCCN2S(=O)(=O)c1cccs1	i	nt	1.9	-1.9
86	O=C(NCC1CCCN1S(=O)(=O)c1cccs1)c1cccc(F)c1 (stereo unspecified)	i	nt	-3.2	-0.3

Values by screen from above.
Compounds 79 to 84 in Rce1 inhib, in turn: i, i, i, i, i, i

These rows are one share of the data, so the mix of outcomes need not match the whole.
